Assay outcomes as filed in PubChem BioAssay.
RanGTP-Impb inh – disruptors of Ran-importin-beta complex formation – biochemical, FRET, CFP-Ran, YFP-importin-beta, homogeneous, primary screen | cell-free CFP-Ran/YFP-importin-beta FRET ratio | inhibition, % (concentration not given with the values) | 1.1% of 300,000 active | AID 2216;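 active = most replicates above 15%; inconclusive = exactly half above 15%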;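 also: 0% = DMSO wells and 100% = Ran loaded with GDP instead of GTP; wells of about 40 µL received 100 nL stock; the first replicate is given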
Vif A3G – inhibitors of Vif binding to APOBEC3G peptide, primary screen, biochemical, TR-FRET, GST-Vif 1-94, biotin-A3G peptide, dose response retest (AID 1117319) | 0.57% of 260,000 active | inhibition, %, or IC50 in µM where a hit was titrated | TR-FRET GST-Vif / biotin-A3G peptide binding; higher % means a stronger effect; test concentration not given here; strong numbers were not always called active;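 active = above the screen mean plus three standard deviations and confirmed in dose response; inconclusive = results disagree or hit not tested in dose response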;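 also: Vif residues 1-94 fused to GST binding biotinylated APOBEC3G peptide 110-148; 0% = full assay without inhibitor and 100% = GST in place of GST-Vif; retest series ran down from 100 µM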
A1 inh – inhibitors of the anti-apoptotic protein A1, read as caspase activation; MEF A1-2A-BIM cells, Caspase-Glo 3/7 luminescence, 3 h; percent of clofoctol response, vehicle zero; caspase activation, % (concentration not given with the values); 0.066% of 330,000 active;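 active = over half of replicate activation scores above 10%, or exactly half above 10 with the replicate mean above 10; inconclusive = replicate mean below 10 yet half the replicates above 10; inactive = over half of replicates below 10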;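 also: wells of about 30 µL received 50 nL stock; many hits fall short of the cut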
Beta cell apopt – blocks beta cell apoptosis; INS-1E cytokine-induced death, ATP luminescence, 48 h; percent of positive-control rescue, neutral wells zero; protection from apoptosis, % (no concentration beside the values); 0.8% of 300,000 active;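 active = all replicates at 75% or more, or half of them and the mean; inconclusive = half reach 75% but not the mean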;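 also: 0% = cytokine-treated negative control wells and 100% = positive control rescue; higher means more ATP so stronger rescue from cytokine killing; wells of about 40 µL received 100 nL stock; the first replicate is given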
Calb FLC – C. albicans growth modulation with fluconazole. 0.57% of 300,000 active. growth inhibition, % (test concentration not listed). C. albicans CaCi-2 (fluconazole-resistant clinical isolate) + fluconazole, Alamar Blue growth, 48 h. AID 1979;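 active = most replicates above 75%; inconclusive = exactly half above 75%; inactive = most below 75%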;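 also: all wells also contain fluconazole at 8 µg/ml as a sub-toxic cotreatment; 0% = median of DMSO wells and 100% = median of geldanamycin control wells; wells of about 8 µL received 7.5 nL stock; the first replicate is given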
AF4-AF9 inh – MLL-AF4/AF9 protein interaction inhibition; 0.47% of 350,000 active; P42568; inhibition, % at 10 µM; AlphaScreen, biotin-AF4 peptide binding to FLAG-AF9;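 active = every replicate reaching a set inhibition limit, whatever the replicate mean, cut at about 25% in these data; inconclusive = mean inhibition reaches that limit but some replicates miss it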;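 also: 0% = plate neutral control median and 100% = total signal loss; the record names both 10 and 1 µM as test concentration; the first replicate is given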
Target sequence (P42568 whole entry, looked up): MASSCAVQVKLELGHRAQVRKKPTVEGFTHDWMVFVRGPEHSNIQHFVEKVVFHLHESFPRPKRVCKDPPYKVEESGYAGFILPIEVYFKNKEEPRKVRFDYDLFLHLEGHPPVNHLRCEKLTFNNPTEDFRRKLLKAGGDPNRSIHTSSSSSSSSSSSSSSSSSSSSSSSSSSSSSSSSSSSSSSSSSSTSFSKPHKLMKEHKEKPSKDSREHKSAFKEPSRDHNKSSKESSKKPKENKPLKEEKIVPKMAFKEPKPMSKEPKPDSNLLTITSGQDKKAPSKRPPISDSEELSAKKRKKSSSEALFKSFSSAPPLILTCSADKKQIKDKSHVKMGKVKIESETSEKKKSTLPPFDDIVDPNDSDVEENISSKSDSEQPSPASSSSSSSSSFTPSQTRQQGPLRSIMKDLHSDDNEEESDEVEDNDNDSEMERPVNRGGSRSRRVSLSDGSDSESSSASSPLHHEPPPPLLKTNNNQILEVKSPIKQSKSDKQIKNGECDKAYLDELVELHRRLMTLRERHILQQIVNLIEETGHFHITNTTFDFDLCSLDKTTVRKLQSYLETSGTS
T cruzi repl – blocks replication of Trypanosoma cruzi; T. cruzi beta-gal in NIH3T3, luminescence, 90 h; inhibition, % (no concentration beside the values); 1.4% of 300,000 active; AID 1885;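 active = mean inhibition across valid replicates above about 55%, limit read from the data; inconclusive = mean below that limit but half or more replicates reach it; inactive = mean below it, under half of replicates reach it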;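 also: signal also drops with host cell toxicity which is not excluded here; 0% = plate median of DMSO wells and 100% = zero luminescence signal; higher percent means less beta-gal luminescence so fewer parasites; stock transfer was 50 nL into about 50 µL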
LANA-H2A inh – blocks KSHV LANA binding to histone H2A/H2B; cell-free LANA-H2A/H2B peptide, fluorescence polarization; inhibition, % (no concentration beside the values); Q9QR71; 0.6% of 320,000 active; in the data active = inhibition mostly above about 10%, no sharp cut-off; inactive = mostly below about 6.7%;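 also: stock transfer was 7.5 nL into about 10 µL; 0% = median of vehicle wells and 100% = median of positive control wells; one replicate is shown; the record names a cut of 25% in any replicate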
* = called active by the depositor; ? = inconclusive; / = not tested or not shown.

SMILES	RanGTP-Impb inh	Vif A3G	A1 inh	Beta cell apopt	Calb FLC	AF4-AF9 inh	T cruzi repl	LANA-H2A inh
Cc1ccccc1C(=O)Nc1ccnc(-c2ccncc2)n1	-3.0	-8%	0.1	-4	21	0.4	46	-0.4
Cc1ccc[n+](CC(=O)c2ccc(-c3ccccc3)cc2)c1	3.1	25%	0.0	-7	-23	13	15	-0.1
COc1ccc(S(=O)(=O)N2CCN(C(=O)CC3CC4CCC3C4)CC2)cc1 (stereo not drawn)	/	-8%	-0.5	0	/	-20	/	/
O=C(c1cc2ccccc2oc1=O)N1CCN(S(=O)(=O)c2ccccc2)CC1	-0.3	8%	-0.7	-4	-19	-2.5	-19	-3.6
COc1cccc(N2CCN(S(=O)(=O)c3cc4c(cc3C)N(C)CCO4)CC2)c1	-1.6	/	-0.3	0	2	-0.7	5	0.1
O=C(CSc1ccc(Br)cc1)N1CCN(S(=O)(=O)c2ccccc2)CC1	5.6	/	-0.5	-6	-5	0.3	25	-2.6
Cc1cc(C)cc(NC(=O)c2ccc(NC3=NC4CS(=O)(=O)CC4S3)cc2)c1 (stereo not drawn)	1.8	/	0.4	0	0	0.3	-11	-1.5
Cc1ccc(NCCC#N)cc1C	?	8%	1.2	-15	2	12	2	-0.4
CN(c1ccccc1)S(=O)(=O)c1cccc(NC(=O)c2ccc3ncsc3c2)c1	2.5	-2%	0.6	10	3	0.6	-6	-0.5
Cc1cc(NC(=O)CSc2nc(N)c(NC(=O)c3ccc(F)c(F)c3)c(=O)[nH]2)no1	-2.8	1%	0.1	-3	-3	-2.4	0	-3.6
Cc1[nH]c2ccccc2c1C(=O)CSc1nc2ccccc2c(=O)n1-c1ccccc1F	-1.6	-6%	0.7	6	18	-3.2	-13	-1.6
COc1ccc(C(=O)N2CCOC2CNC(=O)C(=O)NCCc2ccccc2OC)cc1 (stereo not drawn)	-1.4	2%	-0.1	2	-1	1.4	-4	2.8
CCCCNc1nc2ccccc2n1CC(=O)Nc1c(C)cccc1CC	1.1	2%	0.4	-3	-5	/	-6	-2.6
CCCn1c(N)c(N(CCOC)C(=O)CSCC(=O)Nc2cccc(C)c2)c(=O)[nH]c1=O	-1.5	10%	1.4	2	-3	-1.8	-7	/
COc1ccc2c(CC(=O)N[C@@H](Cc3ccccc3)C(=O)O)cc(=O)oc2c1	-0.3	2%	0.1	-7	-1	-0.3	0	4.3
N#C/C(=C/c1ccc(Br)o1)C(N)=O	25	10%	-0.1	0	-1	/	-7	-0.5
CNS(=O)(=O)c1cc(-c2nnc(N3CCOCC3)c3ccccc23)ccc1C	2.6	/	0.9	-11	-12	-1.2	18	-4.0
Cc1nc(N2CCCCC2)c(C#N)c(C)c1[N+](=O)[O-]	-2.3	-15%	-0.9	-2	-10	-2.2	10	-1.4
COc1cccc(CNC(=O)CCC(=O)n2ncc3cc(C)ccc32)c1OC	4.0	/	1.2	-5	2	2.0	-2	4.3
CC(=O)c1cccc(NC(=O)CSC(=O)c2ccccc2)c1	-1.3	8%	-0.5	-2	5	-10	5	0.5
NS(=O)(=O)c1ccc(CCNC(=O)c2cc(-c3ccco3)nc3ccccc23)cc1	/	/	0.5	1	/	-7.9	/	1.3
CCN1CCN(CC(=O)Nc2ccc(Cl)c(Cl)c2)C(=O)C1=O	-3.8	-2%	0.7	3	-4	4.3	-15	0.5
Cc1cccc(-c2cc3nc4c(c(NCc5ccco5)n3n2)CCCC4)c1	0.6	4%	-0.2	33	14	/	48	0.3
Cc1ccc(-c2nnc(CSc3nnc(COc4ccccc4)n3-c3ccc(C)cc3)o2)cc1	-1.2	-8%	-0.3	-12	24	/	1	-0.4
CCCCN(C)C/C(O)=C(\C#N)c1nc(-c2ccccc2)cs1	-2.1	5%	1.6	-7	-3	/	-10	-0.3
Cc1cccn2c(CN3CCNC(=O)CC3)c(C(=O)N(C)CCc3ccccc3)nc12	0.0	/	-0.5	-1	-18	-1.1	-1	0.3
NC(=O)NC1CCCc2c1[nH]c1ccc(Cl)cc21 (stereo not drawn)	1.4	?	0.0	/	0	-7.8	-3	-2.3
Cc1ccc(NC(=O)c2cc(C)nc3ccccc23)c(Br)c1	2.0	0%	1.5	2	4	0.3	-18	2.2
O=C(C[n+]1ccc(C(=O)NCc2ccccc2)cc1)c1ccc2c(c1)OCCO2	5.2	4%	1.2	-10	3	3.0	-6	1.2
OCC(CO)(CO)n1cnnn1	6.1	2%	-1.2	-5	4	/	-7	0.5

Given with each value named: four of the compounds above.
Cc1cccn2c(CN3CCNC(=O)CC3)c(C(=O)N(C)CCc3ccccc3)nc12
  RanGTP-Impb inh: 0.0
  Vif A3G: /
  A1 inh: -0.5
  Beta cell apopt: -1
  Calb FLC: -18
  AF4-AF9 inh: -1.1
  T cruzi repl: -1
  LANA-H2A inh: 0.3

Cc1ccc(NC(=O)c2cc(C)nc3ccccc23)c(Br)c1
  RanGTP-Impb inh: 2.0
  Vif A3G: 0%
  A1 inh: 1.5
  Beta cell apopt: 2
  Calb FLC: 4
  AF4-AF9 inh: 0.3
  T cruzi repl: -18
  LANA-H2A inh: 2.2

O=C(C[n+]1ccc(C(=O)NCc2ccccc2)cc1)c1ccc2c(c1)OCCO2
  RanGTP-Impb inh: 5.2
  Vif A3G: 4%
  A1 inh: 1.2
  Beta cell apopt: -10
  Calb FLC: 3
  AF4-AF9 inh: 3.0
  T cruzi repl: -6
  LANA-H2A inh: 1.2

CCCCN(C)C/C(O)=C(\C#N)c1nc(-c2ccccc2)cs1
  RanGTP-Impb inh: -2.1
  Vif A3G: 5%
  A1 inh: 1.6
  Beta cell apopt: -7
  Calb FLC: -3
  AF4-AF9 inh: /
  T cruzi repl: -10
  LANA-H2A inh: -0.3

The list goes on:
SMILES	RanGTP-Impb inh	Vif A3G	A1 inh	Beta cell apopt	Calb FLC	AF4-AF9 inh	T cruzi repl	LANA-H2A inh
CCOC(=O)C1(Cc2cccc(OC)c2)CCCN(C(=O)c2cc(C)on2)C1 (stereo not drawn)	0.4	/	1.1	-2	-4	-6.0	-4	-2.7
Cc1ccc(NC(=O)C(C)SCC(=O)Nc2ccc(F)cc2)cc1S(=O)(=O)N1CCOCC1 (stereo not drawn)	-1.9	-3%	0.5	-1	-3	0.4	5	-4.2
CC(C)c1ccc(/C=C/C(=O)NCCCN2CCOCC2)cc1	/	/	-0.1	-2	/	-3.4	/	-3.7
O=C(CN1CCN(S(=O)(=O)c2ccc(Br)cc2)CC1)Nc1ccc2c(c1)OCCO2	4.5	-3%	0.2	-3	3	/	-8	/
Cc1ccc(-n2nc3ccc(NC(=O)c4ccco4)cc3n2)cc1	0.3	-4%	-0.5	5	-4	/	1	1.7
COc1ccccc1CN(C)C(=O)c1cc(-c2cccs2)nc2ccccc12	1.2	/	0.6	1	0	8.1	-8	-0.2
Cc1c(NC(=O)Nc2ccccc2Cl)sc(=S)n1C	1.3	-5%	0.3	-1	17	/	-10	-2.6
CC1(C)Cc2c(sc(/N=C/N3CCOCC3)c2C#N)C(C)(C)N1	5.9	7%	0.0	0	-4	/	8	-2.1
CCC(Cc1ccccc1)NC(=O)Cn1ncc2ccsc2c1=O (stereo not drawn)	2.3	-2%	-0.6	-2	2	0.2	-6	0.9
COc1ccc(-n2c(=O)c3c(C)c(C)sc3n(Cc3cccc(F)c3)c2=O)c(OC)c1	-0.8	-9%	?	-8	4	5.0	1	-2.1
Cc1ccc(C)c(NC(=O)CSc2nc3c(oc4ccccc43)c(=O)n2-c2ccccc2)c1	-0.3	/	0.9	6	-6	2.1	30	2.7
COc1ccccc1NS(=O)(=O)c1ccc(C)c(NC(=O)NCCCl)c1	-1.3	/	0.3	14	-6	2.1	-4	4.4
CCOC(=O)Cc1csc(NC(=O)CSc2nnc3ccccn23)n1	3.7	0%	0.1	-1	-1	-2.6	-1	2.1
CCOc1cc(N2CCOCC2)c(OCC)cc1NC(=O)c1cnccn1	/	/	-0.6	1	/	6.8	/	1.7
COc1cccc2c1-c1c(C(=O)O)cccc1C2=O	1.8	/	0.5	1	6	-1.0	-8	0.7
COc1ccccc1CC(=O)NCC(c1ccco1)N1CCCCC1 (stereo not drawn)	-5.8	-3%	1.3	-2	3	1.1	16	-5.8
CCc1ccc(-c2cc3c(=O)n(CC(=O)N4CCCC4)nc(C)n3n2)cc1	-1.9	/	-0.2	1	2	-4.5	-7	-0.9
CCCCCCCNC(=O)COc1ccc2c(c1)C(=O)CC(C)(C)O2	3.2	-4%	-0.3	-3	42	/	11	-1.4
Cc1onc(-c2ccccc2Cl)c1C(=O)NC(=S)NCC(=O)c1ccccc1	1.2	-56%	-0.6	1	5	/	4	-1.0
Cc1cccc(C)c1NC(=O)COC(=O)c1c2c(nc3ccccc13)/C(=C\c1ccc3c(c1)OCO3)CCC2	/	18%	0.6	6	/	-11	/	63*
O=C(Nc1ccc(F)c(Cl)c1)Nc1cnccn1	?	3%	-1.6	5	6	-3.0	6	1.3
CCC(C)N(C(=O)CSc1nc(C)nc2ccccc12)C1CCS(=O)(=O)C1 (stereo not drawn)	/	/	-0.2	-16	/	-5.4	/	8.2
COc1cccc(CNC(=O)C2CCC(=O)N(CCc3cccc(F)c3)C2)c1 (stereo not drawn)	6.4	-6%	1.8	0	3	1.4	-6	0.6
CC(=O)Nc1ccc(C(=O)OCC(=O)/C(C#N)=C(\C)N)cc1	2.8	5%	-0.7	2	-22	-0.7	-12	0.1
COc1ccc2c(c1)C(=O)N(Cc1ccccc1)C(=O)C2(C)C	0.2	/	1.0	-6	-2	-1.8	20	3.5
O=C(NNC(=O)c1ccc(S(=O)(=O)N2CCOCC2)cc1)c1ccccc1	5.4	/	-0.5	-7	-5	-19	-13	0.1
COc1cc(C(=O)OC2CCOC2=O)c([N+](=O)[O-])cc1OC (stereo not drawn)	-3.2	0%	0.6	-8	0	-0.2	-7	-0.7
CC(C)CCNC(=O)C(=O)Nc1ccc2c(c1)N(S(=O)(=O)c1cccs1)CCC2	2.0	6%	0.3	29	1	-2.0	46	3.0
CCN1C(=O)c2cccc3c(S(=O)(=O)NCc4cccnc4)ccc1c23	23*	-2%	-0.1	-5	-7	/	-8	0.8
O=C1c2ccccc2C(=O)N1CCc1nc2ccccc2c(=O)n1-c1ccccn1	3.3	2%	0.0	-4	-5	/	-6	4.6
O=C(O)c1ccc(CS(=O)(=O)c2cccc(C(F)(F)F)c2)o1	1.2	-4%	0.4	3	1	/	-18	5.9
CCCCCN1CC(O)=C(c2nc3ccccc3[nH]2)C1=N	-2.5	5%	1.4	2	8	-6.3	-9	-3.3
O=c1c2ccccc2nc2ccc(NCc3ccco3)nn12	-3.9	?	-0.9	-5	-5	/	-3	-1.3
CC(Sc1nnnn1C1CCCCC1)C(=O)O (stereo not drawn)	0.6	2%	-0.1	0	-3	0.5	12	-2.8
CC(C)c1ccc(NC2CCCN(C(=O)c3ccc(N4CCOCC4)cc3)C2)cc1 (stereo not drawn)	6.2	/	-1.8	0	-3	6.6	16	6.4
CCC(=O)c1cn(CC(=O)Nc2c(C)cccc2C)c2ccccc12	-2.8	/	-0.9	-3	-6	-4.6	-7	3.5
